Assay outcomes from PubChem.
MT1-MMP promoter: inhibitors of MT1-MMP promoter transcription, cell-based, luciferase reporter, luminescence (AID 618); MT1-MMP promoter luciferase reporter cells, luminescence; calls from a first round at 10 µM; hits with a dose series show EC50 in µM; actives 0.62% (n = 87,000);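 active means over half of the reporter light lost at 10 µM or EC50 under 50 µM; inactive means the rest and hits that failed the dose series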;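 further: actives suppress MT1-MMP promoter-driven transcription so potencies describe inhibitors; HT1080 fibrosarcoma cells; overnight exposure; toxic or luciferase-blocking compounds were not removed from the actives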
Hsc70: Hsc70 inhibitors, probe displacement, primary screen, biochemical, fluorescence polarization (AID 568); Hsc70 fluorescence polarization, probe displacement; higher % means a stronger effect; strong numbers were not always called active; 83,000 tested, under 10 active; displacement, % at 20 µM, or IC50 in µM where a hit was titrated; Heat shock cognate 71 kDa protein (Homo sapiens);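 active means displacement above 50% without optical interference and an IC50 on retest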;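 further: ATPase domain with a fluorescein-tagged ATP probe; 0% = vehicle and 100% = excess ADP; read after one hour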
WNV protease inh: inhibitors of WNV NS2B-NS3 protease, primary screen, biochemical, fluorogenic substrate; z-score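 (tested at a level between 10 and 100 µM)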; fluorogenic substrate Ex360/Em465; active compounds read low; Genome polyprotein (West Nile virus), P06935; actives 0.18% (n = 65,000);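 active means z-score at -3 or under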;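 further: score is relative to mean and spread of the compound wells of a plate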
Target sequence (P06935 1371-1501 limits assumed): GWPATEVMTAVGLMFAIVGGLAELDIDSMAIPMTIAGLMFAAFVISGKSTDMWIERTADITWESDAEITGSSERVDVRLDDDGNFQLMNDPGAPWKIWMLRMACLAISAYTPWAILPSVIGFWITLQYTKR
Target sequence (P06935 1502-1679 limits assumed): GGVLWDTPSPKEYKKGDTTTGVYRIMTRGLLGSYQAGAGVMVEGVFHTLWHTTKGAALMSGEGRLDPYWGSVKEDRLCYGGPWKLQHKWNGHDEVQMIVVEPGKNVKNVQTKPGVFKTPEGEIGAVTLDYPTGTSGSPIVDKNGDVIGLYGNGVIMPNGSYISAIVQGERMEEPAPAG
Active calls of the source: *; i = inactive; · = no result given; + = active, no number. These rows are one share of the data, so the mix of outcomes need not match the whole.

SMILES | MT1-MMP promoter | Hsc70 | WNV protease inh
O=C(Nc1cnn(Cc2ccccc2)c1)c1cc2nc(-c3ccco3)cc(C(F)(F)F)n2n1 | i | -5.9% | 0.75
O=C(Cn1nnc2ccccc21)OCC(=O)c1ccccc1 | i | -2.3% | ·
O=C(CSc1nnc(-c2cccs2)n1-c1ccccc1)NCc1ccc2c(c1)OCO2 | i | -4.1% | 0.4
CCN(CC)S(=O)(=O)c1cccc(C(=O)N2CC(O)CC2C(=O)OC)c1 (stereo unspecified) | i | -4.4% | ·
CCOc1ccc(Cl)cc1S(=O)(=O)N1CCN(c2ccc(F)cc2)CC1 | i | 5.7% | -1.2
CCN(CC)S(=O)(=O)c1ccc2nc(CSc3nnnn3-c3ccc(O)cc3)[nH]c2c1 | i | -4.6% | -1.2
CCOC(=O)C1=C(CSc2nc(CC)c(C)cc2C#N)OC(N)=C(C#N)C1c1ccc(OC)cc1 (stereo unspecified) | i | -9.7% | ·
Cc1noc(C)c1C(=O)Nc1ccccc1-c1ccccc1 | i | -3.0% | 0.27
Fc1ccc(CN2CCN(c3ncccn3)CC2)cc1 | i | 0.6% | ·
Cc1ccc2c(c1)CCCN2C(=O)c1ccncc1 | i | -3.7% | -1.2
CC1CCCN(c2nc3c(c(=O)[nH]c(=O)n3C)n2CCCc2ccccc2)C1 (stereo unspecified) | i | 0.4% | -1.6
CC(C)CC(=O)Nc1cc2nn(-c3ccccc3)nc2cc1Cl | i | -2.7% | ·
COc1ccc(-c2nnc(SCC(=O)Nc3cc(C)on3)n2N)cc1OC | i | 0.9% | 0.44
Nc1nc2n(n1)C(c1ccccc1)CC(c1ccc(F)cc1)N2 (stereo unspecified) | i | -1.6% | 1.8
Cc1cccc(NS(=O)(=O)c2ccc(C)c(C(=O)OCC(=O)Nc3cc(C)on3)c2)c1 | i | -8.2% | 0.59
c1csc(CNc2ncnc3sccc23)c1 | i | -1.8% | -0.02
CC(C)COP(=O)(c1ccc(N(C)C)cc1)C(O)c1ccccn1 (stereo unspecified) | i | 1.8% | 0.09
Cc1ccc(/C=N/NC(=O)Cn2nccc2C)o1 | i | 5.3% | ·
CN(C)CCN1C(=O)C(=O)/C(=C(/O)c2ccc(F)cc2)C1c1ccccc1 (stereo unspecified) | i | -2.0% | -0.31
CCOC(=O)c1cnc(SCC(=O)Nc2nc(C)c(C)s2)nc1N | i | -11% | -0.77
O=c1c2c3nc4ccccc4nc3n(-c3ccc4c(c3)OCCO4)c2ncn1CC1CCCO1 (stereo unspecified) | i | -17% | 0.59
O=C(COc1ccccc1)Nc1ccc2c(c1)nc1n2CCOC1 | i | 2.2% | 0.83
CN=c1scc(C)n1/N=C/c1ccc(O)c(O)c1O | i | 4.6% | ·
CC1CCN(S(=O)(=O)c2ccc(NC(=O)CCN3C(=O)c4ccccc4C3=O)cc2)CC1 | i | 3.8% | ·
Cc1ccc(S(=O)(=O)N2CCN(C(=O)CSC3CCCC3)CC2)c(C)c1 | i | -1.1% | -0.23
CCOC(=O)CCSCC(=O)Nc1nnc(C)s1 | i | -5.8% | 0.29
Cn1c(-c2ccccc2)cc(=O)c2ccccc21 | i | 3.6% | -0.52
CCCN1CNC(=S)N(c2cccc(C)c2C)C1 | i | 1.3% | ·
COCCN1C(=O)C(O)=C(C(=O)c2cccs2)C1c1ccccc1 (stereo unspecified) | i | 4.6% | ·
C=CCn1c(SCc2ccccc2)nc2scc(-c3ccc(C)o3)c2c1=O | i | -3.1% | ·
O=C1CSc2ccccc2N1Cc1ccccc1F | i | -2.7% | 1.1
CC1(C)Cc2c(C#N)c(NC3CCCCC3)nc(-c3ccco3)c2CO1 | i | 1.6% | -0.38
CC(C)CCNC1=NCCCCC1 | i | -5.4% | ·
Cc1ccc(-n2c(SCn3nnc4ccccc4c3=O)nnc2-c2cccnc2)c(C)c1 | i | -4.6% | 0.46
Cc1onc(-c2ccccc2)c1-c1n[nH]c(=S)n1-c1ccc(C(=O)O)cc1 | i | 0.6% | ·
Cc1onc(-c2ccccc2)c1C(=O)N[C@@H]1C(=O)N2[C@@H]1SC(C)(C)[C@@H]2C(=O)O | i | 1.0% | 0.6
CCOc1ccc2nc(N3CCC(C(=O)N4CCN(c5ncccn5)CC4)CC3)sc2c1 | i | -1.0% | 0.11
COc1ccc(N2CCN(C(=O)C3COc4ccccc4O3)CC2)cc1 (stereo unspecified) | i | -5.3% | ·
CC(C)NC(=O)c1ccc2c(c1)nnn2C | i | 3.7% | -0.27
CCOC(=O)C1=C(O)/C(=C/c2cn(CC(=O)N3CCCC3)c3ccccc23)SC1=Nc1ccccc1 | i | -14% | ·
CCOC(=O)c1cnn(-c2ccccc2)c1NC(=O)c1ccc(C)cc1 | i | 1.3% | ·
CC(Oc1ccc(Cl)cc1Cl)C(=O)Nc1ccncc1 (stereo unspecified) | i | 3.1% | -0.13
COc1cccc(-c2csc(N3CCN(C(=O)NC45CC6CC(CC(C6)C4)C5)CC3)n2)c1 | i | -6.3% | ·
Cc1cnc(C(=O)Nc2cccc3ncccc23)cn1 | i | -3.3% | 1.4
CCOC(=O)c1ccc(Oc2nc(OC)nc(N(C)C)n2)cc1 | i | 2.2% | -0.15
C=CCn1c(SCC(=O)c2ccc(O)c(O)c2)nnc1-c1ccccc1OC | i | -0.8% | -0.47
COc1cccc(CNc2ccc(S(=O)(=O)Nc3nccs3)cc2)c1O | i | 0.7% | -1.2
COCCCN(C(=O)Nc1ccc(C)c(C)c1)C(C)c1ccccn1 (stereo unspecified) | i | 0.2% | -1.4
CCN(CC)CCCNC(=O)c1cc(-c2ccc(Cl)cc2)on1 | i | -11% | 0.22
CC(=O)Nc1ccc(-c2cn3cccnc3n2)cc1 | i | -0.5% | 2.9
CCOC(=O)N1CCN(S(=O)(=O)c2cccc3nonc23)CC1 | i | -6.4% | 1.3
CC(=O)c1c(N)c(C#N)c(C)n1-c1ccc(Br)cc1 | i | 8.5% | -0.54
CC1CCCCN1C(=O)C12CCC(C)(C(=O)C1)C2(C)C (stereo unspecified) | i | 2.5% | 1.4
O=c1oc2ccccc2cc1-c1cn2cccnc2n1 | i | -1.1% | 0.76
O=C(c1ccc(F)cc1)N1CCC(N2CCCCCC2)CC1 | i | -1.2% | 0.07
Cc1cccc(OCC(=O)N2CCN(C(=O)Cc3ccccc3)CC2)c1 | i | 4.2% | 0.96
CCc1[nH]c(C)c(C(C)=O)c1C | i | -0.6% | -1.1
COc1ccc(CCn2nnnc2C(c2ccc(Cl)cc2)N2CCN(C)CC2)cc1OC (stereo unspecified) | i | 3.3% | -0.84
CC(C)C(O)P(=O)(OCc1ccccc1)c1ccc(N(C)C)cc1 (stereo unspecified) | i | 2.8% | -1.2
COC(=O)C1=C(C)NC(C)=C(C(=O)OC)C1c1ccc(OC(=O)c2ccco2)cc1 | i | 0.8% | -0.3

Part of the list above in order of molecular weight, smallest number first:
SMILES | MT1-MMP promoter | Hsc70 | WNV protease inh
CCc1[nH]c(C)c(C(C)=O)c1C | i | -0.6% | -1.1
O=C(c1ccc(F)cc1)N1CCC(N2CCCCCC2)CC1 | i | -1.2% | 0.07
CCOC(=O)c1cnn(-c2ccccc2)c1NC(=O)c1ccc(C)cc1 | i | 1.3% | ·
Cc1cccc(OCC(=O)N2CCN(C(=O)Cc3ccccc3)CC2)c1 | i | 4.2% | 0.96
C=CCn1c(SCC(=O)c2ccc(O)c(O)c2)nnc1-c1ccccc1OC | i | -0.8% | -0.47
COC(=O)C1=C(C)NC(C)=C(C(=O)OC)C1c1ccc(OC(=O)c2ccco2)cc1 | i | 0.8% | -0.3

Quoted at random: four entries already listed, in no set order.
SMILES | MT1-MMP promoter | Hsc70 | WNV protease inh
Cc1onc(-c2ccccc2)c1C(=O)N[C@@H]1C(=O)N2[C@@H]1SC(C)(C)[C@@H]2C(=O)O | i | 1.0% | 0.6
O=c1oc2ccccc2cc1-c1cn2cccnc2n1 | i | -1.1% | 0.76
CCOC(=O)C1=C(CSc2nc(CC)c(C)cc2C#N)OC(N)=C(C#N)C1c1ccc(OC)cc1 (stereo unspecified) | i | -9.7% | ·
COc1cccc(CNc2ccc(S(=O)(=O)Nc3nccs3)cc2)c1O | i | 0.7% | -1.2

Continued:
SMILES | MT1-MMP promoter | Hsc70 | WNV protease inh
O=C(NCc1ccco1)c1sc2ccccc2c1Cl | i | -0.4% | ·
Cc1cc(CC(C)C)n(-c2nc3ccccc3c(=O)n2OCC(=O)N(C)C)n1 | i | -3.1% | -1.1
Nc1nc2nc(-c3ccccc3)cc(=O)n2[nH]1 | i | 0.3% | ·
Cc1nc2ncnn2c(C)c1CCC(=O)N1CCc2ccccc2C1 | i | 0.1% | -0.64
O=c1c2c3c(sc2nc2n1CCCS2)CCCC3 | i | 3.3% | 0.54
COc1ccc(C(C)NC(=O)c2ccoc2C)cc1OC (stereo unspecified) | i | -1.1% | -0.5
Cc1ccc2c(Cl)cc(Cl)c(OCC(=O)NCc3ccco3)c2n1 | i | 4.5% | ·
CSCC[C@H](NC(=O)OC(C)(C)C)c1nnc(SCC=C(C)C)o1 | i | -4.1% | -0.67
CC(C)COc1ccc(C(=O)OC2CC(C)(C)OCC2CN(C)C)cc1 (stereo unspecified) | i | -5.2% | 0.99
CC1(C)Cc2ccccc2C(NNC(=O)c2cccnc2)=N1 | i | -0.2% | ·
COCCn1nnnc1CN1CCC(NC(=O)Nc2cccc(OC)c2)CC1 | i | 2.8% | -0.54
O=C(NC(CO)c1ccccc1)c1ccco1 (stereo unspecified) | i | -5.1% | ·
COc1ccc(CCNC(=O)CSc2nncn2N)cc1OC | i | -0.9% | -0.22
Cc1ccc(C(=O)C(NC(=O)c2ccco2)N2CCOCC2)cc1 (stereo unspecified) | i | 2.2% | 0.27
Cc1nc2ncnn2c(C)c1CCC(=O)NC(C)c1ccc2c(c1)OCCO2 (stereo unspecified) | i | -0.5% | -1.3
O=C(Nc1cccc2c1CCCC2)c1ccc(Br)o1 | i | 0.9% | -0.46
COc1ccccc1NC(=O)CSc1nc(N)cc(N)n1 | i | -4.3% | -1.1
CC(C)(C)c1ccccc1OCCCCN1CCCC1 | i | 3.9% | ·
CC1C(C)C(O)(c2ccccc2)CCN1C (stereo unspecified) | i | -2.1% | ·
COCCNC(=O)c1cnn2c1NC(c1ccco1)CC2C(F)(F)F (stereo unspecified) | i | -8.3% | ·
Cc1cccc(OCC(=O)NCc2ccncc2)c1C | i | -1.0% | -1.5
COc1ccc(N2CC(=O)N(c3ccc(OC)c(OC)c3)CC2=O)cc1OC | i | -0.4% | -1.6
COc1ccc(C(=O)Nc2ccc(C)cn2)c(OC)c1 | + | -7.8% | 0.16
c1ccc2c(c1)CCN2CCN1CCc2ccccc21 | i | 4.3% | 0.24
CC(=O)N1CCc2c(sc(NC(=O)C3CC3)c2-c2nc3ccccc3s2)C1 | i | -1.0% | -0.62
O=C(Nc1cccc(Cl)c1)C1CCCN(S(=O)(=O)c2ccc(F)cc2)C1 (stereo unspecified) | i | -2.4% | ·
Cc1c(NC(=O)CCC2CCCCC2)c(=O)n(-c2ccccc2)n1C | i | 6.8% | -0.9
Cc1cccc(C)c1OCC(=O)NCc1nnc(SCC(=O)NC2CCCCC2C)n1C (stereo unspecified) | i | -0.5% | -1.6
Cc1ccccc1NS(=O)(=O)c1ccc(OCC(=O)N2CCCC2)cc1 | i | 0.1% | 0.16
Cc1[nH]nc2cn[nH]c12 | i | -7.2% | 1
CCc1nc(N2CCCC2)c(C#N)c2c1CCCC2 | i | -7.1% | -0.05
C=CCSc1nnc2c(n1)OC(c1cccnc1)Nc1ccccc1-2 (stereo unspecified) | i | -9.0% | 1.1
CC(NC(=O)C(C)(C)C)c1nc2ccccc2n1C (stereo unspecified) | i | 1.3% | -0.62
COc1cc(/C=N/N=C(/N)c2nonc2N)cc(Br)c1OCc1ccccc1C | i | 5.5% | ·
CN1CCN(CCCNC(=O)CCCOc2cc(=O)n(C)c3ccccc23)CC1 | i | 6.8% | 0.51
CN(C)S(=O)(=O)Nc1ccc(C(=O)O)cc1 | i | -0.7% | -0.01
CC1CCCC(C)N1C(=O)CSc1nnnn1Cc1ccccc1 (stereo unspecified) | i | -3.7% | 0.98
CCCCOCCCn1cnc2c([nH]c3cc(OC)ccc32)c1=O | i | 1.3% | 0.07
O=C(NCCCn1ccnc1)c1ccc(Br)c(S(=O)(=O)N2CCOCC2)c1 | i | 3.6% | ·
CN(Cc1c(O)ccc2c1oc(=O)c1ccccc12)C1CCCCC1 | i | -2.6% | 0.49
COc1ccc(CCNC(=O)c2ccc(CNc3c(N4CCOCC4)c(=O)c3=O)cc2)cc1OC | i | -2.0% | 0.91
O=C(COc1ccc2ccccc2c1Br)N1CCOCC1 | i | -7.2% | -0.73
C[C@@H]1CCC[C@H](C)N1NC(=O)c1ccc(Cl)c(S(N)(=O)=O)c1 | i | -0.9% | 0.67
O=C(Nc1nc(-c2cc3ccccc3oc2=O)cs1)c1ccco1 | i | -0.3% | 0.4
COCCn1c(CN2CCN(c3ccccc3F)CC2)nc2c1c(=O)n(C)c(=O)n2C | i | -1.2% | 1
CC(NC(=O)CC1Nc2ccccc2NC1=O)c1ccccc1 (stereo unspecified) | i | 4.6% | -0.04
Cc1nc2sc(C(c3cccs3)N3CCC(C(N)=O)CC3)c(O)n2n1 (stereo unspecified) | i | 2.4% | 0.79
O=c1[nH]c(=O)n(Cc2ccco2)c2c1C(C(F)(F)F)(C(F)(F)F)N=C(CCC1CCCCC1)N2 | i | -2.2% | ·
